D2 PAM: human D2 receptor positive allosteric modulation. potentiation, % (concentration not given with the values). P14416. DiscoveRx D2 beta-arrestin cells, luminescence, 90 min; 100% = 57 uM dopamine signal. AID 624464. 0.23% of 360,000 active; active = potentiation of 50% or more; inconclusive = 30% to 50%; inactive = 30% or less;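 note: compound concentration not given in the record; tested on top of an EC20 dose of dopamine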
Target sequence (P14416 whole entry, looked up): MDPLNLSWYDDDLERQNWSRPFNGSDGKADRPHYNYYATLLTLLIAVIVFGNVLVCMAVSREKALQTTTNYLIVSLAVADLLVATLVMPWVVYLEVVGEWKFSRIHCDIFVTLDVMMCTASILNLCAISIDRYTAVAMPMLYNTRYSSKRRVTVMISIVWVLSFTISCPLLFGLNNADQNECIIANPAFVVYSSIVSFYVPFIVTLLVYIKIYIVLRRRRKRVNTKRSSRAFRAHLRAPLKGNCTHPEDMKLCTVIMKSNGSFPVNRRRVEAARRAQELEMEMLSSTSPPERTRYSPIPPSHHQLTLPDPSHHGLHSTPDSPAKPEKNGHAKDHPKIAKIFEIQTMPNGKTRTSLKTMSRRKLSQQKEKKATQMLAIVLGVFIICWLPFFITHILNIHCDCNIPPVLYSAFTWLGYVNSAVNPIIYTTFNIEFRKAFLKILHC
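PathHunter D2 cells, attached overnight at 37 deg C, received compound in DMSO plus dopamine at EC20 (50 nM final) for 90 min at 37 deg C. Beta-arrestin recruitment was read as luminescence after 1 h with detection reagent at ambient temperature.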
Six1-Eya2 blk: Six1/Eya2 interaction inhibition; Q15475+O00167; AlphaScreen GST-Six1/His-Eya2 binding, biochemical; active compounds read low; control for the full effect not named in the record; activity change, % (no concentration beside the values); 0.56% of 360,000 active; AID 651725; in the data active = activity change below about -65%; inconclusive = about -30% to -65%; inactive = above about -30%; note: % is set by controls: 0 for no effect and ±100 for the full control effect
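Homogeneous AlphaScreen proximity assay pairing GST-Six1 with His-tagged Eya2 (added as 5X mix: 250 nM and 500 nM) in 50 mM Tris pH 8.0, 300 mM NaCl, 1 mM TCEP. Glutathione donor and nickel acceptor beads; 1 h, 37 °C, dark.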
D2 ag: human D2 receptor agonism in beta-arrestin assay; AID 624465; P14416; DiscoveRx PathHunter D2 beta-arrestin, luminescence, 90 min; 100% = 57 uM dopamine signal; activation, % (concentration not given with the values); 0.084% of 360,000 active; in the data active = activation above about 40%; inconclusive = about 15% to 40%; inactive = below about 15%; note: compound concentration not given in the record; the text of the record calls up to 30% inactive
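DiscoveRx PathHunter D2 beta-arrestin cells (2,100/well) attached overnight, then compound-stimulated 90 min at 37 C in HBSS/10 mM HEPES/0.1% Tween-20 buffer; beta-galactosidase complementation read by luminescence after 1 h at ambient temperature. Dopamine 57 uM final (EC100) as control.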
CtBP-E1A inh: inhibitors of CtBP/E1A interaction. AlphaScreen GST-E1A/His-CtBP binding, 1536-well; active compounds read low; control for the full effect not named in the record. activity change, % (concentration not given with the values). 0.49% of 340,000 active; in the data active means activity change below about -65%; inconclusive means about -30% to -65%; inactive means above about -30%; note: % is set by controls: 0 for no effect and ±100 for the full control effect
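Steps: dispense buffer (Tris pH 8.0, NaCl 300 mM, TCEP 1 mM, BSA, Tween 20); add 5X protein mix (GST-E1A, His-CtBP, 125 nM each); pin 23 nL compound; 2 h at 37 °C, dark; add 5X beads (50 ug/mL); 1 h; read.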
gsp ag: agonists of gsp mutant (McCune-Albright syndrome) | 0.13% of 340,000 active | gsp mutant cells, cAMP HTRF, 30 min; control for the full effect not named in the record | AID 624287 | Potency, µM (top dose mostly 76.9 µM), for the others: at the highest dose activation (cAMP increase), most hits filed as activators; active = well fitted activation curve with a large enough effect; inconclusive = small, poorly fitted or top-dose-only effect, or another doubt; inactive = no such curve, though single readings can be large or run the other way; cell line not stated here;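 note: phosphodiesterase inhibitor Ro 20-1724 added with compounds to block cAMP breakdown; potency is the fitted concentration of half-maximal effect; nearly all actives have a fitted effect of over 60% in size; about a fifth of the inactives were tested at one dose only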
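Cells in DMEM/10% FBS with G418 were pretreated with compounds in DMSO plus […] (300 uM stock) for 30 min at 37C. cAMP was measured by HTRF (cAMP-d2 plus anti-cAMP antibody-K) after 30 min at room temperature.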
gsp antag: antagonists of gsp mutant (McCune-Albright syndrome); gsp-mutant cells, cAMP HTRF, 30 min; control for the full effect not named in the record; 0.4% of 340,000 active; AID 624288; Potency, µM (top dose mostly 76.9 µM), inactives show at the highest dose activity change, negative = inhibition, most hits filed as inhibitors; active = falling curve of any shape with a large fitted effect; inconclusive = falling curve, mostly with a smaller effect; inactive = flat or rising curve; cell line not stated here;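 note: intracellular cAMP measured with PDE inhibitor Ro 20-1724 present during compound exposure; potency is the fitted concentration of half-maximal effect; % is set by controls: 0 for no effect and ±100 for the full control effect; nearly all actives have a fitted effect of over 65% in size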
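Cells in G418 medium, seeded 16-24 h, 37C; buffer exchange to DPBS + 1 mM CaCl2, 0.5 mM MgCl2, 0.05% BSA; cpds in DMSO + […] (300 uM stock), 30 min 37C; HTRF cAMP detection.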
The depositor's hits bear a star; ? = inconclusive; / = not tested or not shown; [ ] = another dose, or the depositor's remark.

Abbreviations: A = D2 PAM; B = Six1-Eya2 blk; C = D2 ag; D = CtBP-E1A inh; E = gsp ag; F = gsp antag
COc1cc(F)ccc1-c1csc(C(NC(C)=O)c2cccc(F)c2)n1 (configuration not stated)
  A: -6 | B: 6 | C: 1.5 | D: -21 | E: / | F: /

COc1ccc(N2CCN(c3ccc(C(N)=O)cc3[N+](=O)[O-])CC2)cc1
  A: -3 | B: -14 | C: 0.9 | D: -13 | E: 29% | F: -7%

CC12C=CC(=O)C=C1CCC1C3CCC(O)(C(=O)CO)C3(C)CC(O)C12F (configuration not stated)
  A: -11 | B: -3 | C: 0.3 | D: 12 | E: 10% | F: 12%

CCc1cc2c3c(c(=O)oc2cc1OC)CCCC3
  A: 19 | B: 2 | C: -2.4 | D: 3 | E: 21% | F: ?

COc1ccc(CN(C)Cc2nc(Cc3ccccc3Cl)no2)cc1OC
  A: 1 | B: 3 | C: 0.0 | D: 1 | E: 8%[15.4 µM] | F: 1%

CC(C)(C)N(Cc1ccccc1)C(=O)COC(=O)C1CCN(c2ccc(C(F)(F)F)cn2)CC1
  A: -15 | B: 3 | C: -6.3 | D: 15 | E: 10% | F: 1%

Cc1cc2ncc(C(=O)Nc3ccccc3)c(C)n2n1
  A: 8 | B: 3 | C: -2.0 | D: 2 | E: ? | F: -4%

COCCCNC(=O)c1c(N)n(/N=C/c2cccs2)c2nc3ccccc3nc12
  A: -1 | B: 5 | C: -1.8 | D: 2 | E: 11% | F: -1%

CN(C)c1ccc(C2(O)C(=O)c3ccccc3C2=O)cc1
  A: 6 | B: -2 | C: 0.4 | D: 2 | E: -3% | F: 3%

COc1cc(/C=C2\SC(N)=NC2=O)cc(OC)c1
  A: -14 | B: -11 | C: -6.7 | D: -1 | E: -6%[15.4 µM] | F: -8%

COCc1ccc(O)c2ncccc12
  A: -38 | B: -91* | C: -3.7 | D: -95* | E: ? | F: 3%

C/C=C/C(=O)OCC(=O)Nc1c(Cl)cccc1Cl
  A: -9 | B: 3 | C: -0.2 | D: -4 | E: -11% | F: 5%

COc1ccc(Br)cc1/C=C/C(=O)NC(=S)Nc1ccc(CN2CCOCC2)cc1
  A: -9 | B: -3 | C: 3.3 | D: / | E: 0% | F: 9%

Cc1cccc(NC(=O)CCc2c(C)nn(-c3ccc(N4CCOCC4)nn3)c2C)c1
  A: 1 | B: 0 | C: -3.3 | D: 0 | E: 8% | F: -4%

Cc1ccc(-n2nc3c(SCCN4CCOCC4)nnc(C)c3c2C)cc1
  A: -9 | B: -11 | C: 3.6 | D: -5 | E: 49%[15.4 µM] | F: 15%

COc1ccc(C(C(=O)NC2CCCCC2)N(C(=O)c2csnn2)C2CC2)cc1 (configuration not stated)
  A: -7 | B: -1 | C: -4.1 | D: -16 | E: 10%[15.4 µM] | F: /

COc1ccc(-n2c(N)cc(=O)nc2SCC(=O)N2CCN(c3ccccc3)CC2)cc1
  A: -3 | B: -18 | C: -1.1 | D: -1 | E: ? | F: 14%

O=C(COC(=O)/C(=C/c1cccs1)c1cccs1)NCc1ccccc1Cl
  A: -9 | B: -9 | C: -4.7 | D: -11 | E: 3% | F: -37%

CCOc1ccc(S(=O)(=O)N2CCc3cc(OC)c(OC)cc3C2)cc1
  A: 0 | B: -14 | C: -0.6 | D: -6 | E: -2% | F: 19%

COc1ccc(C)cc1NC(=S)NN1CCN(C)CC1
  A: -12 | B: 7 | C: -2.3 | D: 14 | E: 0%[15.4 µM] | F: /

O=C(NC(Cc1ccccc1)C(=O)O)/C(=C/c1ccccc1)NC(=O)c1ccccc1 (configuration not stated)
  A: 3 | B: 2 | C: 0.8 | D: 1 | E: 6%[15.4 µM] | F: 14%

O=C(N/N=C/c1ccccc1Cl)C1CC1
  A: -12 | B: -8 | C: -0.6 | D: 2 | E: -39%[inhibitor] | F: 5%

COC(=O)CC1(C(=O)OC)Oc2ccc(Br)cc2C(=O)N1c1cc(Cl)cc(Cl)c1 (configuration not stated)
  A: -5 | B: 12 | C: -0.9 | D: 0 | E: 20%[15.4 µM] | F: ?

O=C(O)Cn1nnc(-c2ccccc2)c1COc1ccccc1
  A: -13 | B: 3 | C: -3.1 | D: 6 | E: / | F: /

O=C(CSc1nnc(Nc2ccccc2F)s1)NCC1CCCO1 (configuration not stated)
  A: -4 | B: -2 | C: -5.2 | D: -5 | E: -4% | F: -1%

O=C(Nc1ccc2c(c1)CCCN2C(=O)c1cccs1)c1ccccc1
  A: -6 | B: -4 | C: 2.0 | D: -23 | E: 35% | F: ?

CC(C)n1ncc2c(C(=O)N3CCN(c4ccc(F)cc4)CC3)cc(-c3ccccc3)nc21
  A: -2 | B: -19 | C: -1.0 | D: -24 | E: 3% | F: 0%

O=C(CN1C(=O)c2ccccc2C1=O)NCC(=O)Nc1ccccc1
  A: -1 | B: 6 | C: -0.6 | D: 2 | E: -4% | F: -1%

CC(C)CC(=O)Nc1nnc(SCC(=O)NCc2ccco2)s1
  A: -5 | B: 7 | C: -4.0 | D: 8 | E: 14%[15.4 µM] | F: -7%

CCN1CCCC1CNC(=O)CSCc1nc(-c2ccccc2C)oc1C (configuration not stated)
  A: -35 | B: -20 | C: -2.1 | D: -1 | E: -10% | F: 3%

COc1ccc(Cl)c(Cn2c(NCCCN(C)C)nc3c2c(=O)n(C)c(=O)n3C)c1
  A: -7 | B: 11 | C: -0.5 | D: 6 | E: 3% | F: 9%

COC(=O)c1c(N)nc(C)n1-c1ccc(OC)cc1
  A: -3 | B: 3 | C: -2.2 | D: 6 | E: -27% | F: 5%

CC(C(O)c1cc(=O)c(OCc2ccccc2)co1)[N+](=O)[O-] (configuration not stated)
  A: -19 | B: -2 | C: -4.6 | D: / | E: -18% | F: 2%

S=c1[nH]nc(-c2cc(-c3ccccc3)n[nH]2)n1/N=C/c1cccs1
  A: -9 | B: -16 | C: 3.3 | D: ? | E: 4%[15.4 µM] | F: ?

Cc1ccc(N2CC(C(=O)OCC(=O)c3ccc(C)c([N+](=O)[O-])c3)CC2=O)cc1 (configuration not stated)
  A: -37 | B: 2 | C: -12 | D: 2 | E: 11%[15.4 µM] | F: -11%

CC(C)c1nnc(NC(=O)C2CCN(C(=O)c3ccco3)CC2)s1
  A: -2 | B: 27 | C: -1.7 | D: 6 | E: 0% | F: -1%

Cc1cc(C)cc(C(=O)Nc2nnc(SCC(=O)N3CCCc4ccccc43)s2)c1
  A: -6 | B: -2 | C: -0.3 | D: 1 | E: 17% | F: -10%

Clc1ccc(C2CC(c3cccs3)n3ncnc3N2)cc1Cl (configuration not stated)
  A: -5 | B: -8 | C: -0.4 | D: 0 | E: -26% | F: -9%

Cc1ccc(CNC(=O)C2CCCN(S(=O)(=O)c3ccc(-n4cnnn4)cc3)C2)cc1 (configuration not stated)
  A: -4 | B: 3 | C: -5.9 | D: 8 | E: 12% | F: -2%

Cc1nc2nc(C)c(NS(=O)(=O)c3ccc(Cl)s3)c(=O)n2[nH]1
  A: -7 | B: 4 | C: -1.7 | D: 2 | E: -37%[inhibitor] | F: 5%

O=C1C2C3c4ccccc4C(c4ccccc43)C2C(=O)N1CN1CCOCC1 (configuration not stated)
  A: -14 | B: 5 | C: 0.8 | D: 4 | E: -24% | F: 1%

COC(=O)c1cn(CC(=O)N2C(C)CCCC2C)c2ccccc12 (configuration not stated)
  A: 8 | B: 5 | C: -3.3 | D: 8 | E: -1% | F: -15%

CCCCN(C)C(=O)CCC(=O)NNc1nc2ccccc2c2nc(C)nn12
  A: 3 | B: -4 | C: 2.3 | D: -4 | E: -1%[15.4 µM] | F: -2%

CC(c1nnc(SCC(=O)Nc2ccc3[nH]c(=O)[nH]c3c2)n1Cc1ccccc1)N(C)C (configuration not stated)
  A: -4 | B: 9 | C: -2.1 | D: -9 | E: 8% | F: 4%

O=[N+]([O-])c1cccc(/C=N/n2cnnc2)c1
  A: -3 | B: -6 | C: 1.8 | D: 0 | E: 4% | F: -1%

CC(C(=O)NCCN1CCOCC1)(c1ccccc1)c1ccccc1
  A: -4 | B: 13 | C: -3.1 | D: 7 | E: -8%[15.4 µM] | F: 8%

CCCC(C(=O)NC1CCCC1)N(Cc1ccccc1Cl)C(=O)c1snc(C(N)=O)c1N (configuration not stated)
  A: -2 | B: 8 | C: 5.1 | D: 7 | E: -7% | F: -20%

Clc1ccc(-c2nc3ccc(Cl)cn3c2Cc2cccc(Cl)c2)cc1
  A: -6 | B: 4 | C: -1.4 | D: -2 | E: / | F: /

Cc1ccc(S(=O)(=O)N(C)C)cc1NC(=O)COc1cccc(-n2cnnn2)c1
  A: -8 | B: 3 | C: -0.2 | D: 0 | E: 23% | F: 1%

O=C(COC(=O)C1CCCCC1)Nc1cc([N+](=O)[O-])ccc1F
  A: -20 | B: -2 | C: 6.6 | D: 0 | E: 4% | F: 0%

Whole records as entered above.
CC(C(O)c1cc(=O)c(OCc2ccccc2)co1)[N+](=O)[O-] (configuration not stated) reads D2 PAM: -19; Six1-Eya2 blk: -2; D2 ag: -4.6; CtBP-E1A inh: /; gsp ag: -18%; gsp antag: 2%
COc1ccc(C(C(=O)NC2CCCCC2)N(C(=O)c2csnn2)C2CC2)cc1 (configuration not stated) reads D2 PAM: -7; Six1-Eya2 blk: -1; D2 ag: -4.1; CtBP-E1A inh: -16; gsp ag: 10%[15.4 µM]; gsp antag: /

Next part:
Abbreviations: A = D2 PAM; B = Six1-Eya2 blk; C = D2 ag; D = CtBP-E1A inh; E = gsp ag; F = gsp antag
O=C(c1ccco1)N1CCN(Cc2cc(=O)c(OCc3ccccc3)co2)CC1
  A: 5 | B: 7 | C: 1.8 | D: -22 | E: 20µM* | F: 8%

O=C(c1ccccn1)c1cc2ccccc2n1S(=O)(=O)c1ccccc1
  A: -13 | B: -7 | C: -2.5 | D: 13 | E: 0%[15.4 µM] | F: -13%

CCOc1cc(OCC)cc(C(=O)Nc2cccc(C(C)=O)c2)c1
  A: -8 | B: 4 | C: -3.8 | D: -7 | E: 2%[15.4 µM] | F: -17%

CCCn1c(-c2cccs2)nc2ccccc21
  A: -4 | B: -4 | C: 0.3 | D: -7 | E: -1% | F: -12%

In the list so far, these have a COOH group.
Abbreviations: A = D2 PAM; B = Six1-Eya2 blk; C = D2 ag; D = CtBP-E1A inh; E = gsp ag; F = gsp antag
O=C(NC(Cc1ccccc1)C(=O)O)/C(=C/c1ccccc1)NC(=O)c1ccccc1 (configuration not stated)
  A: 3 | B: 2 | C: 0.8 | D: 1 | E: 6%[15.4 µM] | F: 14%

O=C(O)Cn1nnc(-c2ccccc2)c1COc1ccccc1
  A: -13 | B: 3 | C: -3.1 | D: 6 | E: / | F: /
